Source: PubChem BioAssay
LANA-nucl inh: LANA-nucleosome interaction inhibition; FITC-LANA1-23 / chicken nucleosome fluorescence polarization; active compounds read low; z-score (concentration not given with the values); 51,000 compounds, 0.3% hits;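 active = both repeat wells score below -2 in polarization z-score versus plate sample wells, excluding overly bright wells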;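 also: 100 nL library stock added to about 30 µL; numbers are from one replicate; some results filed as inactive read as strong as hits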
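Assay system: purified chicken nucleosomes with FITC-labelled LANA N-terminal peptide (1-23) / Probe or stimulus: 50 nM FITC-LANA1-23 probe / Compound dosing: pin-transferred compound, 100 nL / Times: compound with peptide–nucleosome mix 10–45 min at room temperature / Technique: fluorescence polarization, 480 nm excitation, 535 nm parallel and perpendicular emission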
Ab BasE inh: inhibitors of Acinetobacter baumannii siderophore enzyme BasE; purified BasE, fluorescence polarization binding displacement; inhibition, % (test concentration not listed); 84,000 compounds, 0.1% hits; AID 485350;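 active = both replicates above 25% with normal brightness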;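 also: 0% = negative plate control signal and 100% = positive plate control signal; stock transfer was 100 nL into about 30 µL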
Active calls of the source: *; / = no result given; & = joins results of further samples. The list is partial; count on the stated rates, not on these rows.

SMILES | LANA-nucl inh | Ab BasE inh
O=C(O)CCC(=O)N1N=C2/C(=C/c3ccc(F)cc3)CCCC2C1c1ccc(F)cc1 (configuration not stated) | / | 1.1
Cc1ccc(-c2noc(C3CCN(C(=O)Nc4ccc(C#N)cc4)CC3)n2)o1 | 0.048 | -3.7
Cc1cc(C)c2c(-n3cccc3)nn(CC(=O)NC(C)c3ccc4c(c3)OCCO4)c2n1 (configuration not stated) | 1.1 | -0.9
OC(c1nnc(-c2ccccc2)o1)c1cn(-c2ccccc2)nc1-c1cccnc1 (configuration not stated) | / | 3.9
C=C1Cn2c(nnc2-c2sc3ccccc3c2Cl)S1 | -0.25 | -2.5
COc1ccc(/C=C2\CCCC3C2=NN(C(=O)c2ccco2)C3c2ccc(OC)c(OC)c2)cc1OC (configuration not stated) | -0.12 | 1.4
CN1CCN(C(=O)CSc2nc(-c3ccc(F)cc3)cc(C(F)(F)F)c2C#N)CC1 | 0.32 | 0.7
CCCC1(C(=O)OC)NC(c2ccco2)C2C(=O)N(C)C(=O)C21 (configuration not stated) | 2.4 | -3.2
Cn1nc(C2CC2)cc1C(=O)O | 2.8 | -2.1
CCCn1c(=O)c2ccccc2n2c(SCC(=O)N3CCN(C(=O)OCC)CC3)nnc12 | / | 1.1
CCOc1ccc(NC(=O)CCS(=O)(=O)c2cc3c(cc2C)NC(=O)CO3)cc1 | -1.1 | 2.7
Cn1c(-c2c(-c3ccccc3)n[nH]c2-c2cccs2)nc2ccccc21 | / | 4.6
CN(CC(=O)N1CCc2ccccc21)Cc1ccccc1 | / | -0.8
NC(=O)c1ccsc1NC(=O)c1csc2c1CCCC2 | -0.62 | -3.1
Cn1nnc2c(C(N)=O)ncn2c1=O | 0.29&-0.034 | /
COc1ccc(Cl)cc1NC(=O)CN(C)C(=O)Cc1coc2c(C)c(C)ccc12 | / | -0.2
C(=N\n1cnnc1)/c1ccc(OC2OCCOC2Oc2ccc(/C=N/n3cnnc3)cc2)cc1 (configuration not stated) | / | 1.1
Cc1cc(N2CCN(C3=NCC(C)(C)S3)CC2)n2c(nc3ccccc32)c1C#N | -0.8 | 4.9
CC(C)=C1CCC(C)C/C1=N\O (configuration not stated) | 0.12 | 2.2
N#Cc1ccccc1S(=O)(=O)Nc1ccc2c(c1)C(=O)OC2 | / | 0.0
Cc1oc(C(=O)O)cc1CN1CCCC1 | -1.1 | -0.1
O=C(CSc1nnc(COc2ccc(F)cc2)o1)N1c2ccccc2CCc2ccccc21 | 0.49 | 2.8
O=C1CCC(C(=O)N2CCN(Cc3ccccc3)CC2)N1 (configuration not stated) | -0.89 | 2.4
CCOC(=O)c1oc2ccccc2c1COC(=O)C1=NN(c2ccccc2)C(=O)CC1 | / | 0.3
COC(=O)C1=CN(Cc2cccs2)C=C(C(=O)OC)C1c1cccs1 | -0.14 | -0.3
CC(CN(C)C)CN1c2ccccc2Sc2ccccc21 (configuration not stated) | 1.1&-0.7&-0.93 | 1.6&-2.8
Cc1cnc(NC(=O)C2=NN(c3ccccc3)C(=O)CC2)s1 | / | 1.4
O=C1OCc2ccc(NS(=O)(=O)c3ccc(N4C(=O)CCC4=O)cc3)cc21 | 0.086 | -0.6
CC1CC(C)N(C(=O)c2cc(-c3ccccc3)on2)C(C)C1 (configuration not stated) | -0.08 | 3.1
CCCCCCn1c(SCC(=O)/C(C#N)=C(\C)N)nnc1-c1c[nH]c2ccccc12 | / | -1.4
Nc1nc(NC(=S)NC2CCS(=O)(=O)C2)n[nH]1 (configuration not stated) | / | 3.1
O=C(CSCc1nc2sc3c(c2c(=O)[nH]1)CCC3)Nc1ccc(-c2nnc3n2CCCCC3)cc1 | / | 1.4
COc1cc2c(cc1OC)C1=C(C#N)CCC(=NC(=O)c3ccccc3F)N1CC2 | 1.1 | 0.3
CC1(C)OC(=O)C(C23CC4CC(CC(C4)C2)C3)C(=O)O1 | / | 0.6
O=C(O)c1ccc2c(c1)S(=O)(=O)c1ccccc1C2=O | / | 4.0
CN(C)S(=O)(=O)Nc1cccc(Br)c1 | -0.72 | -1.9
COc1ccc(/C=C2/C(=O)C(C)(C(C)C)CCC2C)cc1 (configuration not stated) | / | 3.9
CN(C)c1ccc(C(=O)NCCCN2CCCC2=O)cc1 | / | -1.6
O=C(Cn1c(=O)[nH]n(-c2ccccc2)c1=O)N1CCc2ccccc2C1 | / | 0.6
c1ccc(N=C2SC(=NC3CCCCC3)C3=C2CCCC3)cc1 | / | 1.5
CCCc1cc(=O)[nH]c(SCC(=O)NC)n1 | 0.019 | 0.3
Cc1nc2ccc(N)cc2s1 | -0.12 | 0.3
CC(NC(=O)CCC1=NS(=O)(=O)c2ccccc2N1)c1ccc2c(c1)OCCO2 (configuration not stated) | 1.2 | -0.8
Fc1ccc(Nc2nc3ccccc3nc2Nc2ccc(F)cc2)cc1 | / | 1.2
C/C(=N\NC(=O)C1CC1)c1ccc(C)cc1 | / | 0.1
Cc1ccc(NC(=S)N(C)/N=C/c2ccccn2)cc1Cl | / | -2.3
CC1=CC(C)=N/C1=C/c1c(O)[nH]c(=O)[nH]c1=O | -7.6* | 1.3
Cc1ccc(NC(=O)c2ccccc2-c2cc(C)no2)cc1 | -1.7 | 1.6
CC1=C(c2ccc(C)cc2)S(=O)(=O)N(CC(=O)N2CCN(c3ccccc3)CC2)C1=O | -1.6 | -0.8
CCC(=O)Nc1nc(-c2ccccc2)c(C)s1 | -0.42 | 4.0
CC1=CC(C)(C)N(C(=O)CN2C(=O)c3ccccc3C2=O)c2ccc(C)cc21 | -1.2 | 1.5
CCOc1cccc2sc(NN)nc12 | 0.47 | 0.1
COc1cccc(NC(=O)CN(CC(=O)Nc2cccc(OC)c2)CC2COc3ccccc3O2)c1 (configuration not stated) | / | 2.6
CCCn1c(SCC(=O)NCC)nc2sc3c(c2c1=O)CCC3 | / | 0.2
O=C(O)c1ccccc1SC(F)F | / | -1.5
O=C(NCCO)c1nnc(-c2ccccc2)o1 | -0.32 | -0.1
COC(=O)c1ccccc1NC(=O)c1cc(OC)cc(OC)c1 | / | 0.0
COc1cc(Br)cc(C2C3=C(CCCC3=O)N(c3ccc(F)cc3)C3=C2C(=O)CCC3)c1O | 0.18 | 2.8
COC(=O)/C=C1\SC(=Nc2ccc(C)c(C)c2)N(c2ccc(C)c(C)c2)C1=O | / | 2.4
Nc1sc2c(c1C(=O)c1ccc(Cl)cc1)CCN(Cc1ccccc1)C2 | 4.1 | /

19 neighbouring entries already listed, for reference:
SMILES | LANA-nucl inh | Ab BasE inh
Cc1nc2ccc(N)cc2s1 | -0.12 | 0.3
CC(NC(=O)CCC1=NS(=O)(=O)c2ccccc2N1)c1ccc2c(c1)OCCO2 (configuration not stated) | 1.2 | -0.8
Fc1ccc(Nc2nc3ccccc3nc2Nc2ccc(F)cc2)cc1 | / | 1.2
C/C(=N\NC(=O)C1CC1)c1ccc(C)cc1 | / | 0.1
Cc1ccc(NC(=S)N(C)/N=C/c2ccccn2)cc1Cl | / | -2.3
CC1=CC(C)=N/C1=C/c1c(O)[nH]c(=O)[nH]c1=O | -7.6* | 1.3
Cc1ccc(NC(=O)c2ccccc2-c2cc(C)no2)cc1 | -1.7 | 1.6
CC1=C(c2ccc(C)cc2)S(=O)(=O)N(CC(=O)N2CCN(c3ccccc3)CC2)C1=O | -1.6 | -0.8
CCC(=O)Nc1nc(-c2ccccc2)c(C)s1 | -0.42 | 4.0
CC1=CC(C)(C)N(C(=O)CN2C(=O)c3ccccc3C2=O)c2ccc(C)cc21 | -1.2 | 1.5
CCOc1cccc2sc(NN)nc12 | 0.47 | 0.1
COc1cccc(NC(=O)CN(CC(=O)Nc2cccc(OC)c2)CC2COc3ccccc3O2)c1 (configuration not stated) | / | 2.6
CCCn1c(SCC(=O)NCC)nc2sc3c(c2c1=O)CCC3 | / | 0.2
O=C(O)c1ccccc1SC(F)F | / | -1.5
O=C(NCCO)c1nnc(-c2ccccc2)o1 | -0.32 | -0.1
COC(=O)c1ccccc1NC(=O)c1cc(OC)cc(OC)c1 | / | 0.0
COc1cc(Br)cc(C2C3=C(CCCC3=O)N(c3ccc(F)cc3)C3=C2C(=O)CCC3)c1O | 0.18 | 2.8
COC(=O)/C=C1\SC(=Nc2ccc(C)c(C)c2)N(c2ccc(C)c(C)c2)C1=O | / | 2.4
Nc1sc2c(c1C(=O)c1ccc(Cl)cc1)CCN(Cc1ccccc1)C2 | 4.1 | /

Next part
SMILES | LANA-nucl inh | Ab BasE inh
N=C1c2ccccc2CN1c1ccc2c3c(cccc13)C(=O)N2 | / | -0.7
CC(=NCCc1c[nH]c2ccccc12)c1ccccc1O | / | -9.3
COc1ccccc1N1CCN(C(=O)C2C3C=CC(O3)C2C(=O)O)CC1 (configuration not stated) | / | 0.7
O=C1NC2(CCN(C(=O)NCc3ccc(F)cc3)CC2)Oc2ccccc21 | 0.4 | 1.5
CCOc1ccc(C2(C)N([O-])C(CC)=C(c3ccccc3)[N+]2=O)cc1 (configuration not stated) | / | 2.2
CC1CCCCC1n1c(-c2cccnc2)n[nH]c1=S (configuration not stated) | / | 1.5
COc1ccc(O)c(C(=O)c2cc(C#N)c(=O)n(CC3CCCO3)c2)c1 (configuration not stated) | / | 1.9
O=C(O)c1coc2c1/C(=N/N1CCCCC1)CCC2 | / | 1.9
CCN(C(=O)NCc1ccccc1)C1CCCCC1 | -0.41 | -0.7
CCOC(=O)N1CCN(C(=O)Cc2cccc3ccccc23)CC1 | -0.91 | 0.1
Cc1c(C(=O)NCc2ccco2)oc2ccc(S(=O)(=O)N3CCC4(CC3)OCCO4)cc12 | 0.21 | 1.2
CC1CCC(=NNC(=S)NCC2CCCO2)CC1 (configuration not stated) | / | -1.1
O=C(CSc1nc2c(n1-c1ccccc1)CCCC2)N1CCN(C(=O)c2cccs2)CC1 | / | 1.2
O/N=C/c1ccccc1Cl | / | 2.0
COc1ccccc1C(=O)CS(=O)(=O)c1ccc(C)cc1 | 0.3 | 0.0
CCCn1nc(C(=O)NCC)c2ccccc2c1=O | / | 0.6
O=C1NC(Nc2nccs2)(C(F)(F)F)C(=O)N1CCc1ccccc1 (configuration not stated) | -0.052 | -2.3
O=C(CNCc1ccco1)Nc1ncc(Cc2ccc(Cl)cc2)s1 | -0.29 | 1.9
CCOC(=O)Nc1cc(C(F)(F)F)ccc1C(F)(F)F | / | -0.9
O=C(COC(=O)c1ccc2c(c1)NC(=O)CS2)NCc1cccs1 | / | 2.6
Cc1ccc(N2C(S)=C(C#N)C(=O)NC2c2cccs2)cc1 (configuration not stated) | -0.54 | 3.0
COc1cc(OC)c(C(=O)N2CCCCCCC2)cc1OC | -0.74 | 3.6
CC(C)OC(=O)C1=c2s/c(=C\c3cccnc3)c(=O)n2C(N)=C(C#N)C1c1cccnc1 (configuration not stated) | / | 2.1
O=C(CCCCl)Nc1ccccc1N1CCOCC1 | -0.73 | /
O=C1c2ccc(C34CC5CC(CC(C5)C3)C4)cc2C(=O)N1CCN1CCOCC1 | -0.1 | -1.7
CCOC(=O)c1sc2nc(C)nc(NCCCOC)c2c1C | / | 0.9
CC(C)n1cc(NC(=O)c2cc(-c3ccccc3)on2)cn1 | 0.039 | -5.1
CCN1C(=O)C(=Cc2ccc(-c3ccccc3F)o2)C(=O)N(CC)C1=S | / | 1.7
CC1SC(NC(=O)COc2ccccc2)=NC1=O (configuration not stated) | 0.26 | 3.8
Cc1ccc(NC(=O)OC2CCCCCCC2)cc1 | / | -0.4
CN1CCN(CCCC(=O)c2ccc(F)cc2)CC1 | 0.17 | -0.7
CCN(C(=O)CCc1nnc2ccc(NCc3ccccc3)nn12)c1ccccc1 | -0.96 | -1.1
COc1ccc(N2CCN(c3ccccn3)CC2)cc1 | / | 2.7
Cc1cc(SC#N)ccc1N | / | 1.1
Cc1[nH]nc(-c2ccc(S(=O)(=O)NCCCN3CCCC3)s2)c1C | 0.021 | -4.4
CC1Cc2ccccc2N1C(=O)CSc1nnc(-c2ccccc2)o1 (configuration not stated) | 0.82 | 2.4
COC(=O)C1=C(C)NC(=O)CC1C(=O)NCc1ccccc1 (configuration not stated) | -1 | -0.5
O/N=C/C(=N/O)c1ccc(Br)cc1 | -0.57 | -0.6
C#CCSc1nnc2n(CC)c(=O)c3c(n12)-c1ccccc1CC31CCCCC1 | -0.73 | 1.8
CC1=C(C(=O)Nc2ccc(C(=O)NCCCN3CCCCC3)cc2)SCCO1 | 1 | -3.2
COc1cccc(C(=O)Nc2ccc(-c3ccc4nnc(C)n4n3)cc2)c1OC | 0.56 | -1.4
CCC(=O)Nc1ccccc1N1CCN(c2ccc(F)cc2)CC1 | -0.24 | -1.0
NC(=S)NNc1ccc(S(N)(=O)=O)cc1 | 0.52 | 4.2
O=C(c1ccccc1)N1CCCCC(S(=O)(=O)c2ccccc2)C1=O (configuration not stated) | / | 0.3
O=C1C2C3C=CC(C3)C2C(=O)N1c1ccc2c(c1)OCO2 (configuration not stated) | -0.03 | -1.6
NS(=O)(=O)c1ccc(CNC(=O)COc2ccc(Cl)cc2)cc1 | -0.41 | 0.0
COc1ccc(O)c(C(=O)OC(C(=O)N(C)C)c2ccccc2)c1 (configuration not stated) | / | 0.3
O=C(c1ccccc1)N1CCOc2ccccc21 | -0.068 | 0.9
CC(=O)Nc1cccc(OCc2cc(=O)n3nc(CC(C)C)sc3n2)c1 | 0.5 | -1.7
CCNc1nc(NC(C)C)nc(Oc2ccc(/C=N/O)cc2)n1 | / | 1.0
O=C1c2ccccc2C(=O)N1/N=C/c1cn(-c2ccccc2)nc1-c1cccs1 | / | -0.8
CCOC(=O)C1CCCN(Cc2ccc(Cl)cc2)C1 (configuration not stated) | -1.2 | 0.4
